Bioassay records: PubChem, several laboratories
RecA intein inh: blocks M. tuberculosis RecA intein splicing; P9WHJ3; cell-free RecA intein splicing, fluorescence; inhibition, %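 (about 9 µM by stock and volumes)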; hit rate 0.75% among 290,000; AID 2221; in the data active means inhibition above about 30%; inconclusive means no clear call, values can overlap the other calls;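 further: 0% = vehicle wells and 100% = reference inhibitor control wells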
Target sequence (P9WHJ3 whole entry, looked up): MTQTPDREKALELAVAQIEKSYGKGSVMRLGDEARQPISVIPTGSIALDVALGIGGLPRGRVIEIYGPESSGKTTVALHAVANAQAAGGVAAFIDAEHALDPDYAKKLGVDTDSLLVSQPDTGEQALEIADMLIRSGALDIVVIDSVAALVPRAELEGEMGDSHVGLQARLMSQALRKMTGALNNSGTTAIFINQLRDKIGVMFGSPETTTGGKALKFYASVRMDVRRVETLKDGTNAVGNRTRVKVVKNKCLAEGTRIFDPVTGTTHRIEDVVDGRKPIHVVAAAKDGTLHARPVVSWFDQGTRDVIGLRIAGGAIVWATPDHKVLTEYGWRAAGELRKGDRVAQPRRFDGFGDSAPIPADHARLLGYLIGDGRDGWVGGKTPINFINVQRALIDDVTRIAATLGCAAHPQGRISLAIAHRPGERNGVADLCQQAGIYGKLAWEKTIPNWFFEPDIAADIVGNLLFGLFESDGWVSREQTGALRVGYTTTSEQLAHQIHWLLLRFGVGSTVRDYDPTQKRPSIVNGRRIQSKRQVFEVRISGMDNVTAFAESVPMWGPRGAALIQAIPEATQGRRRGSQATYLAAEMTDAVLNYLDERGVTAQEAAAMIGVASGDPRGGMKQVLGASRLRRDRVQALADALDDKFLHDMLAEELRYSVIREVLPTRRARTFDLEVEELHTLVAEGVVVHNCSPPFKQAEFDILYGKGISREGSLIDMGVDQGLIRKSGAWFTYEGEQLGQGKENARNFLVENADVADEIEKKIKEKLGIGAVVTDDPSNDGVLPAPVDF
Mtb growth: M. tuberculosis H37Rv growth inhibitors, H37Rv strain (AID 1626); M. tuberculosis H37Rv growth inhibition; higher % means a stronger effect; one-dose inhibition, % at 10 µM; IC50 in µM for titrated hits; hit rate 0.95% among 220,000;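 active means confirmed in a dose series; inconclusive means inhibition above 80% but not taken into the dose series; inactive means below 80% or under 30% at every dose of the series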;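 further: bacteria incubated seven days before Alamar blue readout; 0% = bacteria only wells and 100% = bacteria with antibiotic wells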
Arbovirus inh: antivirals against arbovirus infection; arbovirus infection cell-based antiviral screen; inhibition, % at 10 µM; hit rate 0.37% among 200,000; AID 1251;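 active means inhibition from about 30%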;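 further: bluetongue infection of BSR cells; cell survival read as ATP light after 72 h; 0% = infected wells without compound and 100% = uninfected wells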
YopH inh: blocks Yersinia enterocolitica YopH tyrosine phosphatase. inhibition, %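 (about 10 µM by stock and volumes)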. AID 898. fluorescence Ex485/Em525. hit rate 0.16% among 140,000;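 active means inhibition of 50% or more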;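 further: controls were vehicle for no effect and minimum signal wells for full effect; inactives centre near -20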
Mtb bLac sens: beta-lactam sensitization of Mtb H37Rv; M. tuberculosis H37Rv growth with meropenem, percent inhibition; hits of this screen are not shown here; inhibition, % at 25 µM; hit rate 0.27% among 330,000;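 active means about 74% or more and at least 40 points above the plate without the antibiotic, then above 30% in a dose series; inconclusive means first-round hits that could not be retested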;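 further: growth measured after seven days incubation then overnight dye step; 0% = bacteria only wells and 100% = bacteria with antibiotic; twin plates without the antibiotic show which effects depend on it; some results filed as inactive read as strong as hits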
Arbovirus inh repeat: recorded beside Arbovirus inh, whose call it bears; inhibition, %; measured here: 10K subset replicate screen; many hits read low in the repeat;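 first of two repeat runs on a subset; 0% = infected and 100% = uninfected wells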
* hit, by the source's call; u = inconclusive; x = not tested or not shown. These rows are one share of the data; the hit share may differ from the screen's.

SMILES | RecA intein inh | Mtb growth | Arbovirus inh | YopH inh | Mtb bLac sens | others
CCN(CCO)C(=O)C(c1ccccc1)c1ccccc1 | 0.0 | -4.7% | 0.0 | -0.7 | -7.6
COc1cccc(OC)c1C(=O)Nc1ccc2c(c1)CCCN2S(=O)(=O)c1ccc(C)cc1 | 8.0 | x | x | x | 1.9
COc1ccc(NC(=O)CCCn2nc(C)c3c(C)n(-c4ccccc4)nc3c2=O)cc1 | -3.0 | x | x | x | 0.8
COC(=O)CC1(C(=O)OC)Oc2ccccc2C(=O)N1c1ccc(F)cc1F (stereo not given) | 0.4 | x | x | x | -4.5
Cc1ccn2cc(CNS(=O)(=O)c3cccs3)nc2c1 | 1.8 | 0.4% | x | x | -9.3
COc1ccc(NC(=O)CSc2nnnn2-c2ccc(OC)cc2)cc1 | -1.1 | x | 0.0 | -9.7 | 4.5
CCN(CC)CCC(=O)N1c2ccccc2Sc2ccc(NC(=O)OC)cc21 | 0.7 | x | x | x | 1.3
O=c1nc(Nc2ccccc2)oc2ccccc12 | -0.6 | -5.9% | x | x | -13.8
CCn1c(SCC(=O)N2CCc3ccccc32)nc2c(c1=O)SC(C)C2 (stereo not given) | 0.8 | 2.2% | x | x | -6.0
Cc1nc(-c2ccccn2)nc(SCC(=O)N2CCOCC2)c1Cl | -2.4 | 3.8% | x | x | -3.6
CC1CCC(C(C)C)C(OC(=O)CSc2nc(N)cc(=O)[nH]2)C1 (stereo not given) | 0.6 | -5.1% | 0.7 | -94.5 | -13.4
COc1ccc(NC(=O)c2sccc2-n2cccc2)cc1 | -2.1 | -2.5% | -9.0 | x | 19.3

Two successive records out of the list so far, for reference:
SMILES | RecA intein inh | Mtb growth | Arbovirus inh | YopH inh | Mtb bLac sens | others
CCN(CCO)C(=O)C(c1ccccc1)c1ccccc1 | 0.0 | -4.7% | 0.0 | -0.7 | -7.6
COc1cccc(OC)c1C(=O)Nc1ccc2c(c1)CCCN2S(=O)(=O)c1ccc(C)cc1 | 8.0 | x | x | x | 1.9

(more compounds)
SMILES | RecA intein inh | Mtb growth | Arbovirus inh | YopH inh | Mtb bLac sens | others
COCCN(C(=O)CCC(=O)Nc1cc(C)on1)C(C(=O)NC1CCCC1)c1ccccc1C (stereo not given) | 0.7 | -4.0% | 0.6 | x | -5.0
CC(NCc1cccnc1)c1ccccc1 (stereo not given) | -0.4 | x | x | x | -0.8
Cc1cc(C)nc(N2CCN(c3nc(C)cc(C)n3)CC2)n1 | 1.7 | -8.3% | -1.2 | -42.1 | x
CCN1C(=O)c2cccc3c(S(=O)(=O)Nc4c(C)n(C)n(-c5ccccc5)c4=O)ccc1c23 | -4.1 | -0.1% | 5.4 | -17.0 | -1.4
O=C(NC1CCN(Cc2ccccc2)CC1)c1cccc(S(=O)(=O)Nc2ccc(Br)cc2)c1 | -5.5 | x | x | x | 88.8
O=C(c1nn2c(C(F)(F)F)cc(-c3ccccc3)nc2c1Cl)N1CCOCC1 | 1.1 | -10.8% | 0.4 | -21.7 | 2.2
CCOC(=O)/C=C1\NC(C)(C)Cc2cc(OC)c(O)cc21 | -0.9 | -10.3% | 9.3 | -16.8 | 8.7
Cc1ccc(-n2c(SCC(=O)NCc3ccco3)nc3nc4c(cc3c2=O)COC(C)(C)C4)cc1 | 1.4 | -1.6% | 1.8 | -25.3 | x
CCC(=O)Nc1ccc(Cl)c(NC(=O)c2ccc(Br)o2)c1 | x | 10.9% | -9.6 | -20.6 | -12.0
O=C(CN1C(=O)C2CC=C(Cl)CC2C1=O)N1CCOCC1 (stereo not given) | -0.4 | -1.9% | -3.8 | -41.8 | -8.2
COC(=O)c1ccc(COc2ccc(C)c(C)c2)o1 | -1.6 | x | x | x | -4.8
O=C(O)c1cccc(S(=O)(=O)N(Cc2ccccc2)c2ccc(Cl)cc2)c1 | 1.6 | x | x | x | 5.2

Sorted by heavy-atom count (highest first): part of the list above
SMILES | RecA intein inh | Mtb growth | Arbovirus inh | YopH inh | Mtb bLac sens | others
COCCN(C(=O)CCC(=O)Nc1cc(C)on1)C(C(=O)NC1CCCC1)c1ccccc1C (stereo not given) | 0.7 | -4.0% | 0.6 | x | -5.0
O=C(NC1CCN(Cc2ccccc2)CC1)c1cccc(S(=O)(=O)Nc2ccc(Br)cc2)c1 | -5.5 | x | x | x | 88.8
CC(NCc1cccnc1)c1ccccc1 (stereo not given) | -0.4 | x | x | x | -0.8

More records follow:
SMILES | RecA intein inh | Mtb growth | Arbovirus inh | YopH inh | Mtb bLac sens | others
C=C(C)CSc1nnc([C@@H](N)Cc2ccccc2)o1 | -0.3 | 8.1% | x | x | 1.1
COc1cccc(C(=O)NC2CCNCC2)c1 | 0.7 | x | x | x | 0.1
O=C(Cc1ccccc1)Nc1ncccc1Cl | 0.1 | x | x | x | -6.0
Nc1nn2c(C(F)(F)F)cc(=O)[nH]c2c1N=Nc1cccc(F)c1 | 2.2 | 1.8% | 15.6 | x | 79.1
Cc1ccc(N=C2SCCCN2C(=O)C2=COCCO2)cc1Cl | 0.7 | x | x | x | 1.3
Cc1ccccc1OCc1nc(-c2ccc(NC(=O)c3cccs3)cc2)no1 | 1.3 | 4.48µM* | 3.1 | -16.1 | 90.4
Cc1cc(C(=O)CN2CCC(C)CC2)c(C)n1-c1ccc(F)cc1 | 2.4 | -2.7% | -4.1 | 8.1 | 0.1
O=C1C(=O)N(c2nccs2)C(c2ccccc2)/C1=C(\O)c1ccc2c(c1)OCCO2 (stereo not given) | -8.1 | x | x | x | 4.0
COC(=O)/C(C#N)=C/c1c[nH]c2ccccc12 | 1.3 | 7.6% | 1.7 | x | 1.2
CC(=O)c1ccc(N(C(=O)c2ccco2)C(C(=O)NC2CCCC2)c2cccs2)cc1 (stereo not given) | 4.7 | x | x | x | 7.2
CC(C)CCn1c2ccccc2c2cc(CC(N)=O)ccc21 | -3.1 | -7.3% | x | x | 43.2
O=c1c2[nH]cnc2n(-c2cccc(F)c2)c(=O)n1Cc1ccccc1 | 2.2 | x | x | x | 0.5
CCCCNC(=O)c1onc(CSc2ccccc2F)c1C(=O)O | 0.1 | -8.9% | -0.4 | -33.0 | -7.8
CCCCCNC(=O)C1CC=CCC1C(=O)O (stereo not given) | 2.0 | -48.4% | -0.4 | -9.7 | -1.3
O=C(Nc1ccc2c(c1)oc1ccccc12)N1CCOCC1 | 1.7 | 49.9% | -4.6 | -5.4 | 37.6
Nc1ccc(C(=O)c2ccccc2C(=O)O)cc1Cl | -0.1 | -2.6% | 5.2 | 15.9 | 5.0
Cc1cccc(-c2nc(-c3ccncc3)no2)c1 | -1.5 | x | x | x | 6.4
O=C(C[N+]12CCC(CC1)C(C(O)(c1ccccc1)c1ccccc1)C2)c1ccc(Br)cc1 (stereo not given) | 2.0 | u | x | x | 95.4
Cc1cccc(C)c1NC(=O)Cc1cccs1 | 0.7 | x | x | x | 1.3
COc1ccc(CCN(C)C(=O)c2oc3ccccc3c2C)cc1OC | -0.1 | x | x | x | 0.9
CC(=O)Nc1ccc(NC(=O)Cn2cnc(S(=O)(=O)N3CCOCC3)c2)cc1 | -1.9 | x | x | x | -7.3
CCOC(=O)c1sc(Nc2nc3c(F)cccc3s2)cc1C | 1.0 | -5.3% | 3.7 | -29.7 | 4.2
CC(=O)c1cnn(-c2nc3c(C)cccc3s2)c1C | 2.3 | -11.6% | -4.8 | -18.4 | 49.8
COc1cc(NS(=O)(=O)c2ccc(NC(=O)/C(=C/c3ccccc3Cl)NC(=O)c3ccccc3)cc2)nc(OC)n1 | 4.0 | 1.1% | 14.2 | -3.2 | 1.7
O=C(O)/C=C\C(=O)Nc1ccccc1C(=O)N1CCN(c2ccc(Cl)cc2)CC1 | 1.1 | -6.9% | 1.3 | -23.4 | 49.9
CC(C)Cc1cc(-c2ccco2)c(C#N)c(N)n1 | 0.6 | 10.5% | 7.9 | -44.5 | -3.3 | Arbovirus inh repeat=4.2
CCCCC(=O)Nc1cccc(NC(=S)NC(C)=O)c1 | -0.8 | 6.3% | 0.3 | -27.4 | -2.1
C#CCOCCOCCOCCNc1nc(N2CCN(C(=O)[C@H](CCC(=O)O)n3cc(C(N)CO)nn3)CC2)nc(N2CCN(C(=O)[C@H](Cc3cc4ccccc4[nH]3)n3cc(C(N)[C@H](C)CC)nn3)CC2)n1 (stereo not given in full) | -3.9 | -4.8% | 0.9 | x | -2.6
CCOC(=O)N1CCN(C(=O)c2ccc3c(c2)N(Cc2cc(C)ccc2C)C(=O)c2ccccc2S3=O)CC1 (stereo not given) | 3.0 | x | x | x | 3.5
Cc1ccc(-c2c(C#N)c(N)n3c(nc4ccccc43)c2C#N)cc1 | -9.2 | 1.3% | 4.1 | -0.5 | -4.0
Cc1cc(NC(=O)CSc2nc(=O)cc(N)n2-c2ccc(F)cc2)no1 | -2.6 | x | x | x | -12.7
CCc1ccc(OCC(=O)NNC(=O)c2cc3ccccc3o2)cc1 | 1.1 | -8.3% | -11.0 | x | -0.7
CCCCCCCCOC(=O)/C=C/c1c(C)[nH]c(=O)[nH]c1=O | -2.1 | -3.1% | 7.3 | -18.9 | 7.7
COc1ccc(Cl)cc1NC(=O)[C@@H]1CCCN1C(=O)c1cccs1 | -1.1 | 10.8% | -4.4 | -34.8 | 0.9
Cc1cccn2c(CNCCCn3ncc4ccccc43)c(C(=O)N3CCCCC3)nc12 | 0.5 | -7.3% | 5.9 | x | -8.2
CN(C)c1ccc(NS(=O)(=O)c2cc(Cl)ccc2Cl)cc1 | -2.6 | 10.6% | -9.5 | -15.2 | -5.2
O=C(c1cccs1)N(Cc1cccc(Cl)c1)C1CCS(=O)(=O)C1 (stereo not given) | 5.2 | -4.5% | 12.0 | -45.4 | -1.2
O=C1c2ccccc2CN1c1ccccc1 | 1.6 | x | x | x | -2.4
CCN(CCCNc1ncnc2nc[nH]c12)c1cccc(C)c1 | 1.7 | -5.6% | 0.5 | -5.6 | 0.9
CC(C)OC(=O)CSc1nc(Cc2ccccc2)nc2ccccc12 | 9.8 | -1.8% | 3.9 | x | 13.5
Cc1nnc(N/N=C/c2ccccc2O)n1N | 75.2* | -1.4% | -21.0 | x | 5.4
CCc1nn2c(=O)cc(N3CCN(c4cc(C)nc5ccccc45)CC3)nc2s1 | -1.2 | -2.2% | 1.2 | -36.9 | x
O=C(O)c1cc(-c2cccs2)nn1-c1cccc(Cl)c1 | -1.6 | 3.5% | 2.2 | x | -4.1
O=c1c(Cl)c(NCc2ccc(F)cc2Cl)cnn1C12CC3CC(CC(C3)C1)C2 | 2.5 | 10.9% | 10.0 | -8.0 | 2.5
CCC(C)OC(=O)C1C(c2ccccc2)C(C(=O)O)C1c1ccccc1 (stereo not given) | 0.3 | 0.9% | 7.6 | -23.8 | 3.6
Cc1cccc(C)c1OCc1nc2ccccc2[nH]1 | 4.0 | -5.3% | -10.3 | -25.0 | -0.1
CC(C)NC(=O)/C(=C\c1cccc([N+](=O)[O-])c1)NC(=O)c1ccccc1 | 1.5 | -1.2% | 6.9 | -38.0 | -4.7
CC1CCN(S(=O)(=O)c2ccc(S(=O)(=O)NCc3ccco3)cc2)CC1 | 1.4 | -2.0% | -5.7 | -22.5 | 12.3
COc1ccc(NC(=O)c2cc(=O)c3ccccc3o2)cc1Cl | -1.1 | x | x | x | 4.8
O=C(CCn1cccc1)N1CCc2ccccc21 | -0.9 | 6.6% | -1.4 | -19.2 | -5.8
CCCCC1(CC(=O)OCC)C(=O)N(c2ccccc2)N(c2ccccc2)C1=O | 6.7 | 8.4% | -12.8 | -4.1 | 0.2
O=C(CSc1nc2ccccc2c(=O)n1-c1ccc(F)cc1F)c1c[nH]c2ccccc12 | -0.5 | -2.8% | 10.1 | -17.4 | 2.3
CC12CCC(=O)N1C(C(=O)Nc1ccc(F)c(Cl)c1)CS2 (stereo not given) | 2.2 | x | x | x | -0.7
O=C(Nc1cccc(Cl)c1Cl)C1CCN(c2ncccn2)CC1 | 0.9 | -5.4% | -5.8 | -30.2 | -7.7
Cc1ccc(S(=O)(=O)Oc2ccc(/C=C(/NC(=O)c3ccccc3)C(=O)NCC(=O)O)cc2)cc1 | -0.2 | -3.7% | -3.6 | x | 2.8
Cc1nc2ccccc2c(C)c1C(=O)c1ccc(F)cc1 | -1.7 | -6.1% | 12.5 | x | -3.0
COc1ccccc1N(CC(=O)NCCc1ccccc1)C(=O)CCC(=O)Nc1cc(C)ccn1 | -3.0 | x | x | x | -1.7
CCOC(=O)c1cc(C)n(Cc2ccccc2)c1C | -0.5 | -4.5% | -4.6 | -42.0 | 4.0
Cc1ccccc1NC(=S)N(CCc1c(C)[nH]c2ccc(F)cc12)Cc1ccncc1 | 6.6 | 5.0% | 9.2 | x | 62.5
Cc1[nH]n(-c2ccc(Cl)cc2)c(=O)c1N=Nc1cccnc1 | -2.8 | 3.39µM* | x | x | 95.5
